KCNQ2 inh: KCNQ2 potassium channel inhibitors, primary screen, cell-based, CHO-K1, FluxOR thallium flux, B-score (AID 2156); O88943; 20 min; stronger effect = lower value; only compounds with negative scores are shown here; some inactives read as strong as hits; B-score at 10 µM; hit rate 1.1% among 310,000;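 active = fluorescence ratio B-score at most minus 3 library SDs, with starting brightness B-score within 2 library SDs, cut at about -5.5 in these data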
Target sequence (O88943 whole entry, looked up): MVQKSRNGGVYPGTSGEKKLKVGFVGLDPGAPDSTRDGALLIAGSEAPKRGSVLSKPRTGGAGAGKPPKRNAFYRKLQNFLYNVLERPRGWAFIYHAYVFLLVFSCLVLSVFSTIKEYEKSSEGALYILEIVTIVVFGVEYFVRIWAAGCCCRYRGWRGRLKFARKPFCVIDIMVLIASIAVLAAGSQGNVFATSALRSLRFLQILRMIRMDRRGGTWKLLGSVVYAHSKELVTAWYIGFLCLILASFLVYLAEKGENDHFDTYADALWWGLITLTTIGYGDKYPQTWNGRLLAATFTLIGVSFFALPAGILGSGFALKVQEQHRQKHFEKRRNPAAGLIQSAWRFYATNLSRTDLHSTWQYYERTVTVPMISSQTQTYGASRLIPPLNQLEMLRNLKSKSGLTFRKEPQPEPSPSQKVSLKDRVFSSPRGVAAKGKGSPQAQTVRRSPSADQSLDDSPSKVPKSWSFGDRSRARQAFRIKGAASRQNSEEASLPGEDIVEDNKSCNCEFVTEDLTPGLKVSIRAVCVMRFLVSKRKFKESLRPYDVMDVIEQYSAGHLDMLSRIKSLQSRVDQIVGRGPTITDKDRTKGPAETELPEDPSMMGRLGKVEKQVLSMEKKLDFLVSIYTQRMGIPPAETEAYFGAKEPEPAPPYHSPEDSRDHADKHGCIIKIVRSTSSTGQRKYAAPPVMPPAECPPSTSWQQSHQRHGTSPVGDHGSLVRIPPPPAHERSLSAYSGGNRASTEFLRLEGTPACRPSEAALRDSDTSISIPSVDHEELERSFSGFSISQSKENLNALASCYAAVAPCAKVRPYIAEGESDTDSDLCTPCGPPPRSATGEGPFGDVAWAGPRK
KCNQ2 inh baseline: also measured in KCNQ2 inh; calls as there; B-score; measured here: initial fluorescence intensity artifact check;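 brightness before thallium and not channel activity; 0 = typical well and far values either way flag optical interference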
Numbers without * were called inactive.

Screening COc1cccc(-n2c(-c3ccoc3)nc3ccccc3c2=O)c1 returned KCNQ2 inh inactive and KCNQ2 inh baseline -0.35.
Cc1cccc(OCC(=O)N2CCN(Cc3cccnc3)CC2)c1 was read as KCNQ2 inh inactive and KCNQ2 inh baseline 0.12.
Screening CC1CN=C(Nc2cccc3ccccc23)S1 (stereo not given) returned KCNQ2 inh inactive and KCNQ2 inh baseline 8.6.
Cc1ccsc1C(=O)C1CCCN(Cc2cccc(OCCO)c2)C1 (stereo not given) was read as KCNQ2 inh inactive and KCNQ2 inh baseline -0.02.
COc1ccc(-[n+]2c(-c3ccccc3)cc(-c3ccc(C)cc3)cc2-c2ccccc2)cc1 was read as KCNQ2 inh -10* and KCNQ2 inh baseline -0.73*.
Screening O=C(Nc1ccc(Cl)cc1C(=O)c1ccccc1Cl)c1ccco1 returned KCNQ2 inh inactive and KCNQ2 inh baseline 0.2.
`CCOc1cc2c(cc1OCC)-n1cccc1C(c1cccc(OCC)c1O)NC2` (stereo not given) gave KCNQ2 inh inactive and KCNQ2 inh baseline -0.22.
`CC(=O)N1N=C(c2cccnc2)OC1c1ccccc1Cl` (stereo not given) gave KCNQ2 inh inactive and KCNQ2 inh baseline -1.4.
For O=[N+]([O-])c1ccc(N2CCCCC2)c2ncccc12 the results were KCNQ2 inh inactive and KCNQ2 inh baseline -0.59.
For Cn1c(O)c(/C=C2\C=c3ccccc3=NC2=O)c(=O)n(C)c1=O the results were KCNQ2 inh inactive and KCNQ2 inh baseline 0.01.
Screening O=C1NC(=O)C(=Cc2ccc(N3CCOCC3)o2)C(=O)N1 returned KCNQ2 inh inactive and KCNQ2 inh baseline 11.
Screening C=CCC1(CN2CCCC2=O)C(=O)NC(=O)NC1=O returned KCNQ2 inh inactive and KCNQ2 inh baseline 2.4.
COc1ccc(CCNC2CCCCCC2)cc1 was read as KCNQ2 inh inactive and KCNQ2 inh baseline 1.5.
`CN1CCN(Cc2ccccc2C(F)(F)F)CC1` gave KCNQ2 inh inactive and KCNQ2 inh baseline 2.
`COc1ccc(C(CN(C)C)C2(O)CCCCC2)cc1` (stereo not given) gave KCNQ2 inh inactive and KCNQ2 inh baseline -0.17.
Cn1c(O)c(/C=N/c2ncccn2)c(=O)n(C)c1=O was read as KCNQ2 inh inactive and KCNQ2 inh baseline 0.02.
For Oc1cc2c(cc1CN1CCN(c3ccc(F)cc3)CC1)OCO2 the results were KCNQ2 inh inactive and KCNQ2 inh baseline 1.2.
For CCC[N+]12CCC(CC1)C(C(O)(c1ccccc1)c1ccccc1)C2 (stereo not given) the results were KCNQ2 inh inactive and KCNQ2 inh baseline 0.61.
Screening COc1ccccc1N1C(=O)NC(=O)/C(=C/c2ccc3c(c2)Cc2ccccc2-3)C1=O returned KCNQ2 inh inactive and KCNQ2 inh baseline 1.5.
`COC(=O)C(O)(c1ccc(N(C)C)cc1)C(F)(F)F` (stereo not given) gave KCNQ2 inh inactive and KCNQ2 inh baseline -0.03.
`Cn1c(O)c(/C=C2/C=CC=N2)c(=O)[nH]c1=O` gave KCNQ2 inh inactive and KCNQ2 inh baseline -1.4.
For O=C1NC(=O)N(c2ccc(F)cc2)C(=O)/C1=C/c1ccc2c(c1)CCCN2Cc1ccccc1 the results were KCNQ2 inh inactive and KCNQ2 inh baseline 2.9.
For CC(=O)Nc1ccccc1C(=O)C(=O)Nc1cccc(C(=O)N2CCC3(CC2)OCCO3)c1 the results were KCNQ2 inh inactive and KCNQ2 inh baseline 0.68.
For COC(=O)C1=COC(C)C2CN3CCC4(C(=O)Nc5ccccc54)C3CC12 (stereo not given) the results were KCNQ2 inh inactive and KCNQ2 inh baseline 0.73.
Screening Cc1c(NC(NC(=O)CF)C(Cl)(Cl)Cl)c(=O)n(-c2ccccc2)n1C (stereo not given) returned KCNQ2 inh inactive and KCNQ2 inh baseline -1.8.
CC(C)Oc1ccc(Cc2c(O)[nH]c(=O)[nH]c2=O)cc1 was read as KCNQ2 inh inactive and KCNQ2 inh baseline -0.84.
For Clc1cccc(C2NCc3ccccc3-n3cccc32)c1 (stereo not given) the results were KCNQ2 inh inactive and KCNQ2 inh baseline 0.99.
CN1CC2([N+](=O)[O-])CC=C(Cl)C([N+](=O)[O-])(C1)C2 (stereo not given) was read as KCNQ2 inh inactive and KCNQ2 inh baseline 1.6.
`CN1CCN(c2cccc3c2C(=O)c2ccccc2C3=O)CC1` gave KCNQ2 inh inactive and KCNQ2 inh baseline 0.22.
For O=c1cccc2n1CC1CC2CN(c2ncnc3c2cnn3-c2ccc(Cl)cc2)C1 (stereo not given) the results were KCNQ2 inh inactive and KCNQ2 inh baseline -0.8.
For CC1CCCCC1NC(=O)CNC(=S)N1CC2CC(C1)c1cccc(=O)n1C2 (stereo not given) the results were KCNQ2 inh inactive and KCNQ2 inh baseline 0.36.
`CC1CCC(NC(=O)CNC(=S)N2CC3CC(C2)c2cccc(=O)n2C3)CC1` (stereo not given) gave KCNQ2 inh inactive and KCNQ2 inh baseline 0.13.
For CN1C(=O)/C(=C\N2CCc3ccccc32)C(=O)NC1=S the results were KCNQ2 inh inactive and KCNQ2 inh baseline 2.4.
For COC(=O)c1ccc(COc2cc(C)cc3oc(=O)c4c(c23)CCCC4)o1 the results were KCNQ2 inh inactive and KCNQ2 inh baseline 0.29.
For Cc1ccccc1-n1c(-c2ccc([N+](=O)[O-])cc2)nc2ccccc2c1=O the results were KCNQ2 inh inactive and KCNQ2 inh baseline -0.08.
For COc1cc(/C=N/NP(=S)(c2ccccc2)c2ccccc2)ccc1O the results were KCNQ2 inh inactive and KCNQ2 inh baseline -0.82.
CN1C(=O)C(Cc2cccs2)C(=O)N(C)C1=O was read as KCNQ2 inh inactive and KCNQ2 inh baseline 0.34.
`O=C(Nc1ccccc1F)OC1CN2CCC1CC2` (stereo not given) gave KCNQ2 inh inactive and KCNQ2 inh baseline 1.8.
`O=C1NC(=O)C2(Cc3ccccc3N3CCCC32)C(=O)N1c1cccc(Cl)c1` (stereo not given) gave KCNQ2 inh inactive and KCNQ2 inh baseline 1.
Screening Cc1ccc(N(C)C(=O)Oc2ccc(C(=O)c3ccc(Cl)cc3)cc2)cc1 returned KCNQ2 inh inactive and KCNQ2 inh baseline -0.81.

3 records drawn at random from those above, as already listed:
For COC(=O)c1ccc(COc2cc(C)cc3oc(=O)c4c(c23)CCCC4)o1 the results were KCNQ2 inh inactive and KCNQ2 inh baseline 0.29.
For CN1C(=O)/C(=C\N2CCc3ccccc32)C(=O)NC1=S the results were KCNQ2 inh inactive and KCNQ2 inh baseline 2.4.
`O=C1NC(=O)C2(Cc3ccccc3N3CCCC32)C(=O)N1c1cccc(Cl)c1` (stereo not given) gave KCNQ2 inh inactive and KCNQ2 inh baseline 1.

(further entries)
O=C(c1cccc2ccccc12)C1CCCN(C2CCC2)C1 (stereo not given) was read as KCNQ2 inh inactive and KCNQ2 inh baseline 0.1.
`CC(NCc1ccc(Cl)cc1)C(O)c1ccccc1` (stereo not given) gave KCNQ2 inh inactive and KCNQ2 inh baseline 0.33.
For COC(=O)c1ccc(-n2c(C)nc3ccccc3c2=O)cc1 the results were KCNQ2 inh inactive and KCNQ2 inh baseline -0.31.
`O=C(O)c1ccc(Cl)nc1` gave KCNQ2 inh inactive and KCNQ2 inh baseline 0.28.
Screening CCn1cc(C(=O)N2CCC3(CC2)OCCO3)c(=O)c2cc(S(=O)(=O)N3CCCC3)ccc21 returned KCNQ2 inh inactive and KCNQ2 inh baseline 0.78.
For CCOC(=O)c1ccc(N=Cc2c(O)n(-c3ccc(OC)cc3)c(=S)[nH]c2=O)cc1 the results were KCNQ2 inh inactive and KCNQ2 inh baseline -1.3.
Cc1ccc(-n2c(O)c(C=NCC3CCCO3)c(=O)[nH]c2=O)c(C)c1 (stereo not given) was read as KCNQ2 inh inactive and KCNQ2 inh baseline -0.6.
`CCOC(=O)N(CC)c1ccc(C(O)(C(=O)OCC)C(F)(F)F)cc1` (stereo not given) gave KCNQ2 inh inactive and KCNQ2 inh baseline 0.9.
`Cc1ccsc1C(=O)C1CCCN(Cc2cnc(N)nc2)C1` (stereo not given) gave KCNQ2 inh inactive and KCNQ2 inh baseline 0.89.
`Cc1c(C(c2ccc(O)cc2)c2c(O)c3ccccc3oc2=O)c(=O)n(-c2ccccc2)n1C` (stereo not given) gave KCNQ2 inh inactive and KCNQ2 inh baseline 0.31.
For CCCN(CC#CCOc1ccc(OC)cc1)CCC the results were KCNQ2 inh inactive and KCNQ2 inh baseline 2.
`COc1cccc(C(=O)C2CCCN(Cc3ccon3)C2)c1` (stereo not given) gave KCNQ2 inh inactive and KCNQ2 inh baseline -0.15.
`Oc1ccc(Br)cc1CN1CCN(c2ccccc2)CC1` gave KCNQ2 inh inactive and KCNQ2 inh baseline -0.16.
CN1CCN(c2cn[nH]c(=O)c2Cl)CC1 was read as KCNQ2 inh inactive and KCNQ2 inh baseline 1.2.
`COc1ccc(N2C(=O)/C(=C/C=C/c3ccccc3[N+](=O)[O-])C(=O)NC2=S)cc1` gave KCNQ2 inh inactive and KCNQ2 inh baseline -0.11.
For CN(C)c1ccc(/C=C2/C(=O)NC(=O)N(CCc3ccc(F)cc3)C2=O)cc1 the results were KCNQ2 inh inactive and KCNQ2 inh baseline -0.77.
`CN(C)C1(CNC(=O)Cc2ccccc2F)CCCCC1` gave KCNQ2 inh inactive and KCNQ2 inh baseline 0.54.
COc1ccc(C(=O)C2CCCN(Cc3ccon3)C2)cc1OC (stereo not given) was read as KCNQ2 inh inactive and KCNQ2 inh baseline -0.55.
Cc1ccccc1C(=O)NC(Oc1ccccc1)C(Cl)(Cl)Cl (stereo not given) was read as KCNQ2 inh inactive and KCNQ2 inh baseline 0.56.
For Cc1cc(Cl)ccc1OCCCC(=O)NCc1cccs1 the results were KCNQ2 inh inactive and KCNQ2 inh baseline -1.8.
CN1CCN(c2ccc(F)cc2N)CC1 was read as KCNQ2 inh inactive and KCNQ2 inh baseline 0.09.
`CS(=O)(=O)N1CCCC(C(=O)N2CCC3(CC2)OCCO3)C1` (stereo not given) gave KCNQ2 inh inactive and KCNQ2 inh baseline 1.1.
`CC(=O)Nc1ccccc1OP1(=O)COc2ccccc2OC1` gave KCNQ2 inh inactive and KCNQ2 inh baseline 0.46.
CN(CC(=O)Nc1ccccc1-c1ccccc1)C1CCCCC1 was read as KCNQ2 inh -6.4* and KCNQ2 inh baseline -0.7*.
CC(=O)c1ccc2c(c1)C1C(Cl)C(Sc3ccccc3[N+](=O)[O-])CC1C(c1ccccc1[N+](=O)[O-])N2 (stereo not given) was read as KCNQ2 inh inactive and KCNQ2 inh baseline -0.04.
Screening O=P(O)(O)C12CC3CC(CC(C3)C1)C2 returned KCNQ2 inh inactive and KCNQ2 inh baseline 0.36.
For OC12ONC(c3ccccn3)C1N1CCC2CC1 (stereo not given) the results were KCNQ2 inh inactive and KCNQ2 inh baseline -0.91.

Structural class: the compounds so far containing a thiophene ring, fused or not
Cc1ccsc1C(=O)C1CCCN(Cc2cccc(OCCO)c2)C1 (stereo not given) was read as KCNQ2 inh inactive and KCNQ2 inh baseline -0.02.
CN1C(=O)C(Cc2cccs2)C(=O)N(C)C1=O was read as KCNQ2 inh inactive and KCNQ2 inh baseline 0.34.
`Cc1ccsc1C(=O)C1CCCN(Cc2cnc(N)nc2)C1` (stereo not given) gave KCNQ2 inh inactive and KCNQ2 inh baseline 0.89.
For Cc1cc(Cl)ccc1OCCCC(=O)NCc1cccs1 the results were KCNQ2 inh inactive and KCNQ2 inh baseline -1.8.

Bioassay records deposited in PubChem BioAssay by Johns Hopkins Ion Channel Center.

These rows are one share of the data. The share of hits here may be higher or lower than overall.
